motility = Vibrio cholerae motility inhibitors, OD read-out (AID 588778); Vibrio cholerae motility, OD read-out; higher % means a stronger effect; test concentration not given here; primary cut-off and reference of the scale not given here; strong numbers were not always called active; inhibition, %, or IC50 in µg/mL where a hit was titrated; 10,000 tested, under 10 active; in the data active = confirmed in a dose series
motility viability = recorded beside motility, whose call it bears; inhibition, %; measured here: bacterial viability at 10 ug/mL;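 higher means fewer living bacteria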
Starred values were filed as active, the others as inactive. The list is partial; the hit share may differ from the screen's.

SMILES	motility	motility viability
Cc1cc(Cl)ccc1OC(C)c1nnc(N)s1 (stereo unspecified)	11%	-1
Cn1c(Cc2cccc3ccccc23)nnc1SCc1c(Cl)cccc1Cl	16%	8
O=C(Cc1cccs1)Nc1ccc(-c2nc3ccccc3[nH]2)cc1	9%	-6
CCOc1ccc(-n2nc3ccc(NC(=S)NC(=O)CC)cc3n2)cc1	-22%	-6
CCOC(=O)N1CCC(Nc2nc(N3CCCC3)nc(N3CCCC3)n2)CC1	33%	11
CCC(C(=O)O/N=C(\N)Cc1cccc2ccccc12)c1ccccc1 (stereo unspecified)	1%	-5
Cc1cc(C(=O)NCc2cc(C)n(C)n2)sc1-c1ccccc1	1%	2
CC(=O)Nc1ccc(OCC(O)Cn2cnc3ccccc32)cc1 (stereo unspecified)	-2%	2
O=C(Nc1ccc2ccccc2c1)Nc1ccc2nccnc2c1	-19%	-12
CCOC(=O)C1CCN(C(=O)C(C)N(c2ccccc2)S(C)(=O)=O)CC1 (stereo unspecified)	-4%	0
O=C1CNC(=O)N1Cc1ccc(F)cc1	14%	6
COc1ccc(NC(=O)C(=S)NCc2ccco2)cc1	21%	4
O=C(O)C1CCCN1C(=O)C12CC3CC(C1)CC(c1ccccc1)(C3)C2 (stereo unspecified)	-5%	1
OC(COc1ccc(Br)cc1)CN(Cc1ccccc1)c1ccccc1 (stereo unspecified)	10%	9
O=C(Oc1ccc(-n2cnnn2)cc1)N1CCOCC1	10%	-4
Oc1ccc(-c2n[nH]c(C(F)(F)F)c2-c2nncn2-c2ccccc2)c(O)c1	0%	6
O=C(Nc1ccc(F)c(Cl)c1)c1ccccc1Br	13%	5
Cc1n[nH]c(=S)n1-c1ccc(C(=O)O)cc1	0%	-4
CCOC(=O)C(=O)Nc1nnc(CC)s1	6%	-1
Cc1ccccc1CSCC(=O)NNC(=S)NCC1CCCO1 (stereo unspecified)	21%	7
Cc1ccc(-c2cn3ccc4ccccc4c3n2)cc1	-20%	-8
Cc1ccnc(NC(=O)c2ccc(S(=O)(=O)c3ccccc3)cc2)c1	23%	6
O=C(Nc1nnc(CC(=O)N2CCOCC2)s1)c1cccs1	14%	0
O=C(CCc1ccccc1)NCCc1nc2ccccc2[nH]1	8%	4
O=C(CC1CCCCC1)Nn1cnnc1	35%	18
O=C(CCN1C(=O)C2C3C=CC(C3)C2C1=O)Nc1ccccn1 (stereo unspecified)	-5%	-7
S=C(c1cccnc1)N1CCOCC1	-1%	-9
COc1ccc(NC(=O)NNC(=O)C2CC2c2ccc(C(C)(C)C)cc2)c(OC)c1 (stereo unspecified)	6%	0
CCOC(=O)c1cc(C(=O)OCC)cc(-n2cc(O)c(C(=O)OCC)n2)c1	-8%	-4
Cc1sc(NCc2cc(Cl)ccc2O)nc1-c1ccc(F)cc1	14%	-3

Look-ups from the entries so far.
Result for Cc1ccnc(NC(=O)c2ccc(S(=O)(=O)c3ccccc3)cc2)c1 under motility viability: 6
Result for CCOC(=O)c1cc(C(=O)OCC)cc(-n2cc(O)c(C(=O)OCC)n2)c1 under motility viability: -4
Result for Cc1ccc(-c2cn3ccc4ccccc4c3n2)cc1 under motility: -20%

(next part)
SMILES	motility	motility viability
CCOC(=O)COc1ccc2c(=O)c(Oc3cnn(-c4ccccc4)c3)c(C)oc2c1C	21%	9
Cc1cc(Br)cc(/C=C/c2[nH]c(=O)[nH]c(=O)c2[N+](=O)[O-])c1O	-7%	1
O=c1c2c3nc4ccccc4nc3n(Cc3ccccc3)c2ncn1Cc1ccccc1	13%	31
Cc1nc(-c2ccc(NC(=O)C3CCCCC3)cc2)cs1	-13%	-6
CC1=C(C)CC(C(=O)Nc2ccc3c(c2)oc2ccccc23)C(C(=O)O)C1 (stereo unspecified)	24%	6
CN(C)C(=O)C1CCC2(C)C(=O)OCC12C (stereo unspecified)	17%	4
CCc1ccc(OCC(=O)NC2CC(C)(C)NC(C)(C)C2)c(Br)c1	-1%	0
CC(=O)N/C(=C\c1ccccc1)C(=O)NC(C(=O)O)C(C)C (stereo unspecified)	1%	-2
CCOc1ccc(C(C)=O)cc1CN(CC)CC	-9%	-17
Cn1c(=O)n(C)c2cc(S(=O)(=O)NNc3ccccc3)ccc21	28%	28
CCOC(=O)C1CCCN1C (stereo unspecified)	-6%	-2
O=C(CSc1ccccc1)Nc1ccncc1	11%	-8
N#C/C(=C\c1ccc(-c2cccc(C(F)(F)F)c2)o1)C(N)=S	5%	9
COc1ccc(CCC(=O)NCCc2cccc(Cl)c2)cc1	-5%	-7
O=C(NNC(=S)NCc1ccco1)c1ccc(OC2CCCC2)cc1	-8%	-9
CCC(=O)NC(c1ccco1)c1c(O)c(C(=O)O)cc2ccccc12 (stereo unspecified)	1%	7
O=C(NNc1cccc(Cl)c1)C(=O)c1cccs1	89%	98
C/C=C(\CS(=O)(=O)c1ccccc1)S(=O)(=O)c1ccccc1	3%	-4
Cc1cc2ccccc2n2c(SCC(=O)NCc3ccco3)nnc12	-7%	-6
Cc1ccnc(NC(=O)c2cc3sc4ccccc4c3s2)c1	15%	0
Cc1cc(=O)[nH]c2c1sc1[nH]c(=O)ccc12	-8%	-9
C=CCOc1ccc(Br)cc1CNc1cccc(C(=O)O)c1	-3%	-11
O=C(Cn1nc(C(F)(F)F)c2c1CCCCC2)Nc1ccc(S(=O)(=O)N2CCCC2)cc1	7%	4
Cc1cccc(C)c1NC(=S)NCCCN1CCc2ccccc2C1	23%	10
Cc1cnc(NCCc2ccccc2)s1	126%	22
O=C(O)C1C2C=CC(C2)C1C(=O)N1CCCC1 (stereo unspecified)	1%	-2
CCSc1nc(C2CC2)cc(-c2ccco2)c1C#N	-7%	-12
Fc1ccc(C2=NN(c3ccc(Cl)cc3)C(c3cccs3)C2)cc1 (stereo unspecified)	-22%	-12
Cc1cc(-n2cc(Br)c(=O)[nH]c2=O)nc(-c2ccccc2)n1	-33%	-15
O=C(Cc1cccs1)N1CCN(c2ncccn2)CC1	9%	7
COc1cccc2cc(-c3cc4cccc(OC)c4oc3=O)c(=O)oc12	18%	28
COc1cccc(CNc2ccc(Br)cc2C)c1OC	-3%	-8
Cc1nnc2n(c1=O)N=C(c1ccccc1)CS2	31%	10
Cc1cccc(OCCCCOc2cccc(C)c2)c1	0%	0
Cc1cccc(C(=O)NC(Oc2ccccc2[N+](=O)[O-])C(Cl)(Cl)Cl)c1 (stereo unspecified)	-5%	-5
COc1cccc2cc(C(=O)Nc3cccc(-c4cn5cccc(C)c5n4)c3)c(=O)oc12	2%	-8
Cc1c(NC(=O)CSc2nnc(-c3ccco3)n2-c2ccccc2)c(=O)n(-c2ccccc2)n1C	-6%	-5
CC(=O)c1ccc(Sc2ccc(C(C)=O)cc2)cc1	8%	-3
O=C(c1ccc2c(c1)OCCO2)c1ccccc1I	11%	-4
O=C(Nc1nn[nH]n1)C1(c2ccccc2)CCCC1	-10%	-5
O=C1C=CC(=O)C2=C1C1c3ccccc3C2c2ccccc21	126%	73
CC(=O)c1ccc(N2CCN(C(=S)Nc3ccccc3C(F)(F)F)CC2)cc1	-34%	-10
Cc1cc(I)ccc1NC(=O)Cc1cccc2ccccc12	13%	-2
COc1cc(N2CCCC2)c(OC)cc1/C=C(/C#N)c1cccc(F)c1	-11%	-5
NC(=O)c1ccsc1NC(=O)c1cc(Br)ccc1Cl	33%	35
COc1ccc(CCN/C(C)=C/c2oc3ccc(O)cc3c2[N+](=O)[O-])cc1OC	2%	29
O=C(NCC1CCCO1)C(Cc1ccccc1)N1C(=O)C2C3C=CC(C4CC34)C2C1=O (stereo unspecified)	-5%	6
CCOc1cc(CN2CCN(c3ccccn3)CC2)ccc1O	21%	1
O=S1(=O)C=CC2ON=C(c3c(Cl)cccc3Cl)C21 (stereo unspecified)	10%	10
Cc1ccc(C)n1-c1ccccc1-c1ccccc1N	7%	-1

Profiles as entered above:
Entry for `Cc1cc(I)ccc1NC(=O)Cc1cccc2ccccc12` : motility: 13%; motility viability: -2
Entry for `Cc1ccc(C)n1-c1ccccc1-c1ccccc1N` : motility: 7%; motility viability: -1

Fetched by structure from the list above:
SMILES	motility	motility viability
O=C1C=CC(=O)C2=C1C1c3ccccc3C2c2ccccc21	126%	73
Cc1c(NC(=O)CSc2nnc(-c3ccco3)n2-c2ccccc2)c(=O)n(-c2ccccc2)n1C	-6%	-5
Cc1nc(-c2ccc(NC(=O)C3CCCCC3)cc2)cs1	-13%	-6
CCOc1ccc(-n2nc3ccc(NC(=S)NC(=O)CC)cc3n2)cc1	-22%	-6
O=C(Oc1ccc(-n2cnnn2)cc1)N1CCOCC1	10%	-4
COc1ccc(NC(=O)NNC(=O)C2CC2c2ccc(C(C)(C)C)cc2)c(OC)c1 (stereo unspecified)	6%	0
Cc1ccnc(NC(=O)c2ccc(S(=O)(=O)c3ccccc3)cc2)c1	23%	6

Of the compounds above, these contain a CF3 group.
SMILES	motility	motility viability
Oc1ccc(-c2n[nH]c(C(F)(F)F)c2-c2nncn2-c2ccccc2)c(O)c1	0%	6
N#C/C(=C\c1ccc(-c2cccc(C(F)(F)F)c2)o1)C(N)=S	5%	9
O=C(Cn1nc(C(F)(F)F)c2c1CCCCC2)Nc1ccc(S(=O)(=O)N2CCCC2)cc1	7%	4
CC(=O)c1ccc(N2CCN(C(=S)Nc3ccccc3C(F)(F)F)CC2)cc1	-34%	-10

(list continues)
SMILES	motility	motility viability
O=C(O)CC(c1ccc(F)cc1)c1ccco1 (stereo unspecified)	-12%	-10
N#Cc1ccc(C(c2ccc(C#N)cc2)(C(F)(F)F)C(F)(F)F)cc1	-2%	-2
O=C(O)C1CCCCC1C(=O)NCc1ccc(F)cc1 (stereo unspecified)	-4%	0
CCOC(=O)c1ccc(-n2c(C)ccc2C)cc1[N+](=O)[O-]	-1%	-8
Cc1ccnc(NS(=O)(=O)c2ccc(NC(=O)CSc3nc4ccccc4o3)cc2)n1	-9%	-6
Cc1ccsc1CN1CCC(C(=O)N(CCc2ccccc2)Cc2ccccc2)CC1	12%	-1
O=C(CSc1nc(O)cc(=O)[nH]1)Nc1cc(Cl)cc(Cl)c1	-8%	2
Cn1c(NCc2c[nH]c3ccccc23)nc2ccccc21	27%	8
COc1ccc2ccccc2c1CNCc1ccccn1	4%	2
CS(=O)(=O)N(CC(=O)Nc1ccccc1C(=O)N1CCOCC1)c1cc(C(F)(F)F)ccc1Cl	12%	-4
CS(=O)(=O)N(CC(=O)NCc1cccnc1)c1ccc(F)c(Cl)c1	-5%	-1
COc1ccc(NC(=S)NC(=O)c2cc3c(C)nn(-c4ccccc4)c3s2)cc1[N+](=O)[O-]	-7%	-2
OCCCNCc1ccc(Cl)cc1Cl	-1%	-2
CCC(NC(=O)NNC(=O)c1ccc(OC)c(OC)c1)(C(F)(F)F)C(F)(F)F	15%	9
c1cc(-c2nnc(-c3ccncc3)o2)ccn1	17%	0
O=C(CSc1nnc(-c2cccc(F)c2)n1-c1ccccc1)NCc1ccco1	-2%	-4
O=c1c2cccc3c2c(nn1-c1ccc2ccccc2c1)-c1ccccc1-3	0%	2
CCOc1cc(C=O)ccc1OC(=O)C1CC1	-20%	-1
O=C(O)c1cc(Cl)c2ccccc2c1O	51%	19
CC(=O)N1CCN(Cc2nc3cc(NS(C)(=O)=O)ccc3n2C)CC1	3%	2
Nc1cc(=O)[nH]c(SCc2ccc(F)c3ccccc23)n1	-29%	-16
CN(C)c1ccc(-c2oc3c(ccc4ccccc43)c(=O)c2O)cc1	5%	7
Cc1nc(SC2CC(=O)N(c3cc(Cl)cc(Cl)c3)C2=O)nc2c1CCCC2 (stereo unspecified)	28%	6
COc1cccc(/C=C2/C(=O)NN(c3ccc(C)c(C)c3)C2=O)c1	-13%	-5

Screening results: PubChem, Southern Research Institute
